# Screens from PubChem BioAssay.
# T cruzi repl: blocks replication of Trypanosoma cruzi; T. cruzi beta-gal in NIH3T3, luminescence, 90 h; AID 1885; hit rate 1.4% among 300,000; inhibition, % (concentration not given with the values);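 active means mean inhibition across valid replicates above about 55%, limit read from the data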;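 further: signal also drops with host cell toxicity which is not excluded here; 0% = plate median of DMSO wells and 100% = zero luminescence signal; higher percent means less beta-gal luminescence so fewer parasites; stock transfer was 50 nL into about 50 µL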
# FGF22 binding: binders of recombinant human FGF22 by thermal shift; Q9HCT0; SYPRO orange fluorescence; percent of sucrose octasulfate shift, DMSO zero; calls only at 9.99 µM; hit rate 1.5% among 340,000;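 active means melting point raised past a set limit in the mean and every replicate; three in four hits are not shown here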
# E coli growth: blocks Escherichia coli growth; hit rate 0.21% among 330,000; OD600, 23 h; active compounds read low; OD600 absorbance (concentration not given with the values); AID 1053175;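 active means OD600 absorbance below the run mean of sample wells minus 3.6 SD, in any replicate, cut at about 0.56 in these data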;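 further: stock transfer was 300 nL into about 60 µL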
# A1 inh: inhibitors of the anti-apoptotic protein A1, read as caspase activation | MEF A1-2A-BIM cells, Caspase-Glo 3/7 luminescence, 3 h; percent of clofoctol response, vehicle zero | caspase activation, % (test concentration not listed) | hit rate 0.066% among 330,000;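 active means over half of replicate activation scores above 10%, or exactly half above 10 with the replicate mean above 10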;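 further: wells of about 30 µL received 50 nL stock; many hits fall short of the cut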
# UCH37 inh: blocks the human deubiquitinase UCH37; Q9Y5K5; purified proteasome/UCH37, Ub-AMC cleavage fluorescence; inhibition, % (test concentration not listed); hit rate 0.33% among 330,000;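 active means mean of two replicates above 20%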;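 further: 0% = compound-free wells with enzyme and 100% = wells lacking proteasome; stock transfer was 100 nL into about 20 µL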
# Target sequence (Q9Y5K5 whole entry, looked up): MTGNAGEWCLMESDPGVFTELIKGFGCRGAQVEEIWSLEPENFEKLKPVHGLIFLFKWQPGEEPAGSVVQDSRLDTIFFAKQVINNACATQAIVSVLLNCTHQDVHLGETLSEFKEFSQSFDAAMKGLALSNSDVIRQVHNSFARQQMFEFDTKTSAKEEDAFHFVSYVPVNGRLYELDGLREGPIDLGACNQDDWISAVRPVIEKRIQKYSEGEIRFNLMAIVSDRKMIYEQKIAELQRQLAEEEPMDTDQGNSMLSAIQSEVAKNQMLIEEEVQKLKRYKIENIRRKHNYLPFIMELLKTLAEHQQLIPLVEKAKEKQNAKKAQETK
#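 Material: Human UCH37 enzyme supplied as purified proteasome complex | Schedule: 30 min compound-proteasome preincubation then 25 min substrate reaction, room temperature | Detection: AMC fluorescence from Ub-AMC cleavage, excitation 355 nm, emission 460 nm | Benchmarks: Wells without proteasome as full block, compound-free enzyme plus substrate as uninhibited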
# Beta cell apopt: beta cell apoptosis inhibition; INS-1E cytokine-induced death, ATP luminescence, 48 h; percent of positive-control rescue, neutral wells zero; protection from apoptosis, % (concentration not given with the values); hit rate 0.8% among 300,000;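 active means all replicates at 75% or more, or half of them and the mean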;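 further: 0% = cytokine-treated negative control wells and 100% = positive control rescue; higher means more ATP so stronger rescue from cytokine killing; wells of about 40 µL received 100 nL stock; the first replicate is given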
# AF4-AF9 inh: blocks AF4 peptide binding to human AF9. hit rate 0.47% among 350,000. P42568. AlphaScreen, biotin-AF4 peptide binding to FLAG-AF9. inhibition, % at 10 µM;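 active means every replicate reaching a set inhibition limit, whatever the replicate mean, cut at about 25% in these data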;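 further: 0% = plate neutral control median and 100% = total signal loss; the record names both 10 and 1 µM as test concentration; the first replicate is given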
# Target sequence (P42568 whole entry, looked up): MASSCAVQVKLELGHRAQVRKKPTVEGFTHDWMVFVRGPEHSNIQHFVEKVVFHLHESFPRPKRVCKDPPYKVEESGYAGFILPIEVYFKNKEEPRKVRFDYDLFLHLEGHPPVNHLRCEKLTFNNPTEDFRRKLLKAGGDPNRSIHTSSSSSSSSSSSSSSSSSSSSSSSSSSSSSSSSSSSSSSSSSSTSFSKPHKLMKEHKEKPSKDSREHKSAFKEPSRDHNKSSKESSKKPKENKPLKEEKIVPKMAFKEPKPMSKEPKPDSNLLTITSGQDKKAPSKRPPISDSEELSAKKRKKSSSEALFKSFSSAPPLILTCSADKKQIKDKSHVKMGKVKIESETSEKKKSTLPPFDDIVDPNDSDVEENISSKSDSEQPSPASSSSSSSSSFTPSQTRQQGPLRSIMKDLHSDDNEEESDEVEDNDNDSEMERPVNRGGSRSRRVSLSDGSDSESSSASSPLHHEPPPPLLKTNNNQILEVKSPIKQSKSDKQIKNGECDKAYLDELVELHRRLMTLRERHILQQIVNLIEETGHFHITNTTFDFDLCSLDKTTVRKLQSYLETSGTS
# rRNA inh HTS: inhibits bacterial ribosomal RNA function over humanized ribosomes; E. coli WT GFP vs humanized-ribosome RFP mutants, fluorescence, 24 h; active compounds read low; DMSO median 0, no signal -100; GFP signal change (wild-type ribosome), % (test concentration not listed); hit rate 1.6% among 350,000;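 active means significant combined selectivity score with lowered wild-type GFP, culture density cut under 30%, mutant RFP and density less affected; inactive means any of these conditions unmet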; further: one replicate is shown; some compounds called inactive have numbers as strong as hits
# rRNA inh HTS OD600: also measured in rRNA inh HTS; calls as there; OD600 change, %; measured here: OD600 growth;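 optical density of the mix in the first replicate; 0 = DMSO median and -100 = no signal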
# rRNA inh HTS RFP: further read-out of rRNA inh HTS, marked with its call; RFP signal change, %; measured here: RFP humanized mutant strains;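 first replicate; 0 = DMSO median and -100 = no signal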
# Active calls of the source: *; i = inactive; . = no result given. Not all compounds are listed; rates above refer to the full screens.
SMILES,T cruzi repl,FGF22 binding,E coli growth,A1 inh,UCH37 inh,Beta cell apopt,AF4-AF9 inh,rRNA inh HTS,rRNA inh HTS OD600,rRNA inh HTS RFP
COc1ccc(C(=O)C2CCCN(C(=O)c3cccnc3OC)C2)c(C)c1 (centres undefined),-6,i,0.66,1.2,1.0,-2,-1.4,-7,-7,-12
O=C(O)CC1c2ccccc2C=Cc2ccccc21,-4,i,0.71,-0.6,0.5,-5,-4.3,-9,-3,-7.8
CC(C)(C)OC(=O)C[C@@H]1C/C=C\C[C@H](CC(=O)N[C@@H](CO)Cc2ccccc2)C(=O)N[C@H](Cc2ccccc2)COC1=O,.,i,.,-0.3,0.4,-11,4.0,13,14,0.3
COc1ccccc1N(C(=O)CCl)c1cn(C(C)=O)c2ccccc12,6,i,0.64,0.4,4.7,5,5.1,-31,-34,-4.4
Cc1nc(CCNC(=O)CC2C(=O)NCCN2Cc2ccccc2)sc1C (centres undefined),7,i,0.65,0.2,-5.3,-3,3.1,20,15,1.0
CN(CC(=O)Nc1cccc(F)c1)C(=O)c1sccc1-c1ccccc1,.,i,0.64,.,5.5,.,1.4,-12,-8,-0.1
Nc1ccc2oc3ncccc3c(=O)c2c1,-22,i,0.65,-0.2,3.0,-2,5.1,2,0,-7.3
COc1cc(Cc2nc3ccc(S(=O)(=O)N4CCOCC4)cc3[nH]2)cc(OC)c1OC,-14,.,0.83,0.4,-1.5,-3,.,.,.,.
CCN(CC)CCCn1c(=S)[nH]c2ccc(Cl)cc2c1=O,-11,.,0.68,0.0,-3.7,1,.,.,.,.
CC1CC(C)(C)OC(c2ccc(C(C)C)cc2)O1 (centres undefined),.,i,0.67,.,0.5,.,-2.2,25,22,7.7
CCCc1cc(=O)c2ccc(OC/C(C)=N/O)cc2o1,16,i,.,1.0,.,-2,-0.2,-8,-8,-3.8
COc1ccc(C(=O)N/N=C/c2cn[nH]c2-c2ccc(OC)cc2OC)cc1,-33,i,.,0.3,.,-7,2.1,18,5,-0.1
Cc1cc(C)n2nc(SCc3nnc(SCCCCl)o3)nc2n1,1,i,0.69,0.5,-1.7,-8,3.5,-1,-1,-0.1
COC(=O)Nc1ccc(N2CCOCC2)c(S(=O)(=O)N2CCOCC2)c1,-12,i,0.69,0.4,5.0,-4,-5.5,7,8,0.7
CC1CN(C(=O)CSc2ncnc3sccc23)CC(C)O1 (centres undefined),-1,.,0.75,-0.3,1.3,-1,.,.,.,.
CC(=O)c1c(NCCc2ccccc2)cc(C)oc1=O,12,i,0.65,0.4,5.5,-2,5.0,0,-6,-6.4
CNC(=O)Nc1ccc(Cl)cc1,-13,.,0.64,-1.1,2.4,-4,.,.,.,.
Nn1c(Nc2ccccc2)nc2sc3c(c2c1=O)CCCC3,-1,i,0.72,-0.7,4.2,-5,1.9,.,.,.
CN1CCN(C(=O)c2ccc(-c3ccccc3)cc2)CC1,6,i,0.63,0.4,8.0,1,4.6,10,1,-0.6
OCCCNc1nc(-c2ccccc2)c2cc(Br)ccc2n1,41,i,0.64,-0.7,-88,5,-1.8,-11,-10,-0.3

# The last two compounds of the part before are carried over, then new ones follow.
SMILES,T cruzi repl,FGF22 binding,E coli growth,A1 inh,UCH37 inh,Beta cell apopt,AF4-AF9 inh,rRNA inh HTS,rRNA inh HTS OD600,rRNA inh HTS RFP
CN1CCN(C(=O)c2ccc(-c3ccccc3)cc2)CC1,6,i,0.63,0.4,8.0,1,4.6,10,1,-0.6
OCCCNc1nc(-c2ccccc2)c2cc(Br)ccc2n1,41,i,0.64,-0.7,-88,5,-1.8,-11,-10,-0.3
C=CCNC(=O)c1ccc2c3n(nc2c1)-c1ccccc1CO3,8,i,0.65,-9.2,-3.5,39,-49,-15,-6,-3.0
O=C(NCCN1CCOCC1)Nc1ccccc1,.,.,0.74,0.2,1.8,-15,.,.,.,.
Cc1nn(-c2cccc(C(F)(F)F)c2)c(Cl)c1/C=N/Nc1cccc(C(=O)O)c1,-4,i,.,-4.2,.,13,-2.0,-8,4,6.7
O=C(Cn1cnc2c(NCc3ccccc3)ncnc21)N1CCN(c2ccccn2)CC1,.,i,0.69,.,-2.4,.,1.2,0,0,2.7
CC1CN(C(=S)Nc2ccc(Cl)cc2)CC(C)O1 (centres undefined),-3,i,0.68,0.7,0.8,.,3.1,12,-2,1.4
O=C1CCc2nc3ccccc3c(=O)n2N1,-6,.,0.79,-1.0,1.7,-1,.,.,.,.
CC(=O)Nc1ccc(S(=O)(=O)N2CCN(c3ccc([N+](=O)[O-])cc3)CC2)cc1,-10,i,0.7,0.3,7.6,-12,-2.2,-6,-4,-0.9
c1ccc(-c2nc3c([nH]2)CCc2nonc2-3)cc1,1,i,0.65,0.6,0.3,.,-0.5,1,3,-2.7
CCOC(=O)N1CCN(C(=O)CCS(=O)(=O)c2cc3c(cc2Cl)NC(=O)CO3)CC1,2,i,0.74,-0.2,5.4,0,3.0,0,1,-2.3
CCc1c(C)c2ccc(OCC(=O)NCC3CCC(C(=O)O)CC3)c(C)c2oc1=O (centres undefined),0,i,0.7,0.4,-81,-2,-1.0,-18,-18,-14
CCOc1nc(Nc2ccc(OC)cc2OC)nc(OCC)n1,6,i,0.71,0.0,1.5,-3,-0.4,-9,-10,-0.8
O=C(NCc1ccccc1)C(c1ccco1)N(C(=O)c1ccccn1)c1ccccc1 (centres undefined),-1,i,0.7,1.0,3.1,-1,2.5,3,3,-0.7
COc1ccc(Cn2c(CCC(=O)Nc3ccc(C)cc3)nc3cccnc32)cc1,10,.,0.72,0.0,1.8,3,.,.,.,.
CC1CCN(S(=O)(=O)c2ccc(NC(=O)Cc3ccc(S(=O)(=O)N4CCOCC4)s3)cc2)CC1,14,i,0.66,-1.1,4.3,10,-2.8,8,-4,23
COc1ccccc1NC(=O)C(C)NS(=O)(=O)c1ccc(F)cc1 (centres undefined),-6,.,0.69,-0.7,5.8,-5,.,.,.,.
CC(C)=C(NC(=O)c1ccccc1Br)C(=O)NCCc1nc2ccccc2[nH]1,-11,i,0.66,0.5,-0.3,-4,-1.1,12,19,4.1
CCN(Cc1ccccc1)C(=O)C1CCN(Cc2ccc(SC)cc2)CC1,12,i,0.69,0.6,-0.4,2,-1.8,-4,-19,-4.8
CCOc1ccc(OCCC(=O)OCC(=O)Nc2cc(OCC)c(N3CCOCC3)cc2OCC)cc1,7,i,.,1.1,.,-38,19,-1,0,0.7
CC(C)(CNc1ccc(C(F)(F)F)cc1[N+](=O)[O-])N1CCOCC1,8,i,0.74,-0.1,2.0,-1,9.8,-1,-14,1.3
COc1cccc(CNC(=O)CN2C(=O)COc3ccc(S(=O)(=O)N4CCC(C)CC4)cc32)c1,2,i,0.68,-0.1,-1.2,8,-0.8,-3,-15,-3.2
COc1ccc(NC(=O)C(=O)NNC(=O)c2cccs2)cc1,-12,.,0.69,-7.4,7.1,-5,.,.,.,.
O=C(CCNS(=O)(=O)c1ccccc1)N1CCN(C(c2ccccc2)c2ccccc2)CC1,22,i,.,-0.4,.,1,-3.0,-24,-29,-2.6
COc1cccc(CN(C)C(=O)CCN=C2NS(=O)(=O)c3ccccc32)c1OC,.,i,0.71,-0.3,2.3,-7,-2.3,4,9,-0.8
Cc1cc(Cl)c(OCCCN(C)C)c(Br)c1,52,i,0.67,-0.2,2.5,-5,1.5,.,.,.
O=C(NCc1ccc(Cl)cc1)c1ccc(-c2ccccc2C(F)(F)F)o1,-27,i,0.65,1.7,3.2,0,-2.9,-9,-12,0.2
O=C(COC(=O)C1CC(=O)N(Cc2ccccc2)C1)Nc1ccc2c(c1)OCO2 (centres undefined),-2,.,0.71,2.3,1.2,.,.,.,.,.
COc1cc(/C=N/N2CCN(Cc3ccc(C)cc3)CC2)cc(OC)c1O,31,i,.,-0.1,.,.,8.1,-6,-5,-4.9
COc1ccc(/C=N/Nc2nc3ccccc3c(=O)n2-c2ccccc2)cc1OC,-1,i,.,-0.9,.,14,3.8,3,11,-3.0
O=C(CC(Nc1ccccc1)c1ccc(F)cc1)c1ccccc1 (centres undefined),-6,.,0.71,-0.1,1.3,-11,.,.,.,.
COc1ccc([N+](=O)[O-])cc1N(CC(=O)N1CCOCC1)S(C)(=O)=O,-14,i,0.68,0.9,3.7,-2,-1.5,13,7,-2.0
O=C(O)COc1ccccc1C(Nc1ccccn1)c1cc(Cl)c2cccnc2c1O (centres undefined),-6,.,0.67,0.0,3.3,-8,.,.,.,.
COc1ccccc1-c1nnc(SCC(=O)N2CCCCC2)o1,4,i,0.66,-0.5,-0.5,2,-1.7,-1,0,-2.1
CCc1c(C)sc(NC(=O)/C=C/c2ccc3c(c2)OCO3)c1C(=O)OC,-20,.,0.69,0.0,-33,3,.,.,.,.

# Of the compounds above, twelve contain four or more nitrogen atoms.
SMILES,T cruzi repl,FGF22 binding,E coli growth,A1 inh,UCH37 inh,Beta cell apopt,AF4-AF9 inh,rRNA inh HTS,rRNA inh HTS OD600,rRNA inh HTS RFP
Cc1nc(CCNC(=O)CC2C(=O)NCCN2Cc2ccccc2)sc1C (centres undefined),7,i,0.65,0.2,-5.3,-3,3.1,20,15,1.0
COc1ccc(C(=O)N/N=C/c2cn[nH]c2-c2ccc(OC)cc2OC)cc1,-33,i,.,0.3,.,-7,2.1,18,5,-0.1
Cc1cc(C)n2nc(SCc3nnc(SCCCCl)o3)nc2n1,1,i,0.69,0.5,-1.7,-8,3.5,-1,-1,-0.1
Nn1c(Nc2ccccc2)nc2sc3c(c2c1=O)CCCC3,-1,i,0.72,-0.7,4.2,-5,1.9,.,.,.
Cc1nn(-c2cccc(C(F)(F)F)c2)c(Cl)c1/C=N/Nc1cccc(C(=O)O)c1,-4,i,.,-4.2,.,13,-2.0,-8,4,6.7
O=C(Cn1cnc2c(NCc3ccccc3)ncnc21)N1CCN(c2ccccn2)CC1,.,i,0.69,.,-2.4,.,1.2,0,0,2.7
CC(=O)Nc1ccc(S(=O)(=O)N2CCN(c3ccc([N+](=O)[O-])cc3)CC2)cc1,-10,i,0.7,0.3,7.6,-12,-2.2,-6,-4,-0.9
c1ccc(-c2nc3c([nH]2)CCc2nonc2-3)cc1,1,i,0.65,0.6,0.3,.,-0.5,1,3,-2.7
CCOc1nc(Nc2ccc(OC)cc2OC)nc(OCC)n1,6,i,0.71,0.0,1.5,-3,-0.4,-9,-10,-0.8
COc1ccc(Cn2c(CCC(=O)Nc3ccc(C)cc3)nc3cccnc32)cc1,10,.,0.72,0.0,1.8,3,.,.,.,.
CC(C)=C(NC(=O)c1ccccc1Br)C(=O)NCCc1nc2ccccc2[nH]1,-11,i,0.66,0.5,-0.3,-4,-1.1,12,19,4.1
COc1ccc(/C=N/Nc2nc3ccccc3c(=O)n2-c2ccccc2)cc1OC,-1,i,.,-0.9,.,14,3.8,3,11,-3.0
